Source: PubChem
MLL AF4-AF9 inh: inhibitors of AF4 peptide binding to AF9, primary screen, biochemical, AlphaScreen, biotin-AF4 peptide, FLAG-AF9, single point | 0.47% of 350,000 active | AID 651704, 2012 | Protein AF-9 (Homo sapiens), P42568 | inhibition, % at 10 µM;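 active = every replicate reaching a set inhibition limit, whatever the replicate mean, cut at about 25% in these data; inconclusive = mean inhibition reaches that limit but some replicates miss it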;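 note: 0% = plate neutral control median and 100% = total signal loss; the record names both 10 and 1 µM as test concentration; the first replicate is given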
Target sequence (P42568 whole entry, looked up): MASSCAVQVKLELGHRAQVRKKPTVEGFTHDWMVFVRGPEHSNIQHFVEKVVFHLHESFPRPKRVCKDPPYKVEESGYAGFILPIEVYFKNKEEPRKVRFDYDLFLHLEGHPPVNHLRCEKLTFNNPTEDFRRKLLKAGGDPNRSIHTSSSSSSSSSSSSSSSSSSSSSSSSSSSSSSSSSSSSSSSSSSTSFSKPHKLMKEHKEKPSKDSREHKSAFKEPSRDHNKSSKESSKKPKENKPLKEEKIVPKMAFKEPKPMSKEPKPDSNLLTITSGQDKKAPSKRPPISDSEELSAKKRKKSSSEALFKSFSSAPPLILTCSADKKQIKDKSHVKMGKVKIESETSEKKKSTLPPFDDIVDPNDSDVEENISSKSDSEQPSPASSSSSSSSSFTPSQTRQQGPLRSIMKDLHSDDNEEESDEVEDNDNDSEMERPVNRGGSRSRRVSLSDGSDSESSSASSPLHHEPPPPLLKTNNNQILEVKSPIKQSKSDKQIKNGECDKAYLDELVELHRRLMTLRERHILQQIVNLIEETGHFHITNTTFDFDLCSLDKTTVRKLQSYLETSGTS
* marks the source's active call; other numbers are inactive results; ? = inconclusive. An excerpt (hit frequency here may not be typical).

SMILES	MLL AF4-AF9 inh
CCOC1=C2CN(S(=O)(=O)c3ccc(C)cc3)[C@H](c3ccccc3)C[C@@H]2N(S(C)(=O)=O)[C@H](c2ccccc2)C1	0.0
O=C(Cc1ccccc1)N1C[C@H]2[C@@H](c3ccccc31)[C@@H](CO)N2C(=O)C1CC1	-0.8
CCCC(=O)Nc1ccc2c(c1)C(=O)N(C)[C@@H]1CC[C@H](CC(=O)NCC3CC3)O[C@@H]1CO2	-2.0
COC(=O)[C@]12C[C@H](CC(=O)NCc3cccc(C(F)(F)F)c3)C(=O)N(Cc3ccc4c(c3)OCO4)C1=C[C@H](COCc1ccccc1)O[C@@H]2C	-2.2
COc1ccc(S(=O)(=O)Nc2cccc3c2O[C@@H](CN(C)S(=O)(=O)c2ccc(Cl)cc2)[C@H](C)CN([C@H](C)CO)C3=O)cc1	-1.5
O=C(C1CCC1)N1CCCCN2[C@H](C1)[C@H](c1ccc(C#CC3CCCC3)cc1)[C@@H]2CO	0.7
Cn1cnc(S(=O)(=O)N2CCCCN3[C@H](C2)[C@@H](c2ccc(-c4ccc(F)cc4)cc2)[C@@H]3CO)c1	-1.0
Cc1ccc(-c2ccc3c(c2)O[C@@H](CN(C)S(C)(=O)=O)[C@@H](C)CN([C@@H](C)CO)S3(=O)=O)cc1	0.6
C[C@@H]1CCCCO[C@H](CN(C)S(=O)(=O)c2cn(C)cn2)[C@@H](C)CN([C@@H](C)CO)C(=O)c2cc(NC(=O)c3ccncc3)ccc2O1	-2.4
C[C@H]1CN([C@@H](C)CO)C(=O)Cc2cc(NC(=O)Cn3cnnn3)ccc2O[C@H]1CN(C)Cc1ccc(C(=O)O)cc1	-4.8
CC(C)NC(=O)N[C@@H]1CC[C@@H](CC(=O)N2CCCCC2)O[C@H]1CO	-1.0
COc1ccc(S(=O)(=O)Nc2ccc3c(c2)OC[C@H](C)NC[C@@H](C)[C@@H](OC)CN(C)C3=O)cc1	-2.2
CC(C)NC(=O)N[C@@H]1CC[C@@H](CCNS(=O)(=O)c2ccc(Cl)cc2)O[C@@H]1CO	-0.5
CCCCNC(=O)C(COCc1ccccc1)OC(=O)c1ccccc1 (centres undefined)	-16.0
C[C@@H]1CN([C@@H](C)CO)C(=O)c2cc(NC(=O)Cc3ccccc3)ccc2O[C@@H](C)CCCCO[C@@H]1CN(C)C(=O)Cc1ccccc1	-4.3
CC(C)CC#Cc1cnc2c(c1)C(=O)N([C@H](C)CO)C[C@@H](C)[C@H](CN(C)Cc1ccc3c(c1)OCO3)O2	12.9
COc1ccc(-c2cnc3c(c2)C(=O)N([C@H](C)CO)C[C@H](C)[C@@H](CN(C)S(C)(=O)=O)O3)cc1	-3.3
Cn1cnc(S(=O)(=O)N2CCCCN3[C@H](C2)[C@@H](c2ccc(-c4ccccc4F)cc2)[C@@H]3CO)c1	-3.9
COc1ccc(S(=O)(=O)Nc2ccc3c(c2)C(=O)N([C@H](C)CO)C[C@H](C)[C@@H](CN(C)S(=O)(=O)c2ccccc2)OCCCC[C@H](C)O3)cc1	-2.4
COCC(=O)N1CC2(C1)[C@H](c1ccc(C3=CCCC3)cc1)[C@H](CO)N2C(=O)COC	-0.6
CN1CCN(C(=O)C[C@@H]2CC[C@H]3[C@@H](COC[C@@H](O)CN3S(=O)(=O)c3cccc(Cl)c3)O2)CC1	-4.5
CC1(C(=O)NS(=O)(=O)c2ccc(F)cc2F)CCN1C(=O)Cc1cc(F)ccc1F (centres undefined)	-0.1
C[C@@H]1CN([C@@H](C)CO)C(=O)c2cc(NS(=O)(=O)c3cn(C)cn3)ccc2O[C@@H]1CN(C)CC1CCCCC1	-4.4
COC(=O)[C@H]1[C@H](CO)[C@H]2Cn3c(cccc3=O)[C@H]2N1CC1CCCC1	-7.9
O=C(NCc1ccccc1)[C@H]1[C@H](CO)[C@H]2Cn3c(cccc3=O)[C@H]2N1Cc1ccccc1F	0.0

More entries follow:
SMILES	MLL AF4-AF9 inh
CCCNC(=O)[C@@H]1[C@@H](CO)[C@@H]2Cn3c(ccc(-c4ccccc4)c3=O)[C@@H]2N1CC	-0.7
C[C@@H]1CN([C@@H](C)CO)C(=O)c2cc(NC(=O)Cc3ccccc3)ccc2O[C@@H](C)CCCCO[C@@H]1CN(C)CC1CCCCC1	-1.5
CS(=O)(=O)N1[C@H](C#N)[C@H](c2ccc(C#CC3CCCCC3)cc2)[C@@H]1CO	5.6
COc1cccc(S(=O)(=O)N[C@H]2CC[C@@H](CC(=O)NCc3ccccc3)O[C@H]2CO)c1	-0.5
CCCC(=O)N1CCC1(C)C(=O)NS(=O)(=O)c1ccccc1Cl (centres undefined)	-1.8
C[C@@H]1CN([C@H](C)CO)C(=O)c2cccc(NC(=O)C3CCOCC3)c2O[C@H]1CN(C)S(=O)(=O)c1cccs1	-0.8
C[C@@H]1CN([C@@H](C)CO)C(=O)c2cccc(NC(=O)c3ccncc3)c2O[C@@H]1CN(C)S(=O)(=O)c1cccs1	-2.6
Cc1ccc(S(=O)(=O)N2CCCCC2)cc1NC(=O)Cn1cc(C(F)(F)F)ccc1=O	?
N#C[C@H]1[C@@H](c2ccc(-c3ccc(F)cc3)cc2)[C@H](CO)N1C(=O)Cc1ccccc1	10.9
C[C@H]1CN([C@@H](C)CO)C(=O)c2cc(C#CCN(C)C)cnc2O[C@@H]1CN(C)C(=O)Nc1cccc(F)c1	-0.5
COc1ccc([Si](C)(C)[C@H]2[C@H](CCO)O[C@@]3(C(=O)N(Cc4cccc(N5CCOC5=O)c4)c4ccccc43)[C@@H]2C)cc1	1.9
CCc1nc2ccc(C(=O)NCc3ccc4c(c3)OCO4)cn2c1N(CC)CCOC	?
O=C(Nc1ccc(Cl)c(Cl)c1)N[C@@H]1CC[C@H](CCn2cc(C3CCCC3)nn2)O[C@H]1CO	-0.8
COC(=O)[C@@]12C[C@@H](CC(=O)NCCCCc3ccccc3)C(=O)N(Cc3ccc4c(c3)OCO4)C1=CCC(C)(C)C2	-2.4
C[C@@H]1CN([C@H](C)CO)C(=O)Cc2cc(NS(=O)(=O)c3ccc(Cl)cc3)ccc2O[C@H]1CN(C)CC1CCCCC1	2.4
O=C(C[C@@H]1CC[C@H]2[C@@H](COC[C@H](O)CN2CC2CCCCC2)O1)NCc1ccc(F)cc1	-1.6
C/C=C/c1ccc([C@@H]2[C@@H](CO)N(C(=O)COC)[C@@H]2CNC(=O)CC)cc1	0.7
CN(C[C@H]1N[C@H](CO)[C@H]1c1ccc(-c2cccc(F)c2)cc1)S(C)(=O)=O	3.0
C[C@H](CO)N1C[C@H](C)[C@H](CN(C)S(C)(=O)=O)Oc2c(NS(C)(=O)=O)cccc2C1=O	-2.7
Cc1ccccc1-c1cnc(C(O)c2ccc(F)c(F)c2)[nH]1 (centres undefined)	3.8
CCCN(C)C[C@H]1OCCCC[C@@H](C)Oc2ccc(NS(=O)(=O)c3ccc(F)cc3)cc2C(=O)N([C@@H](C)CO)C[C@H]1C	1.9
O=[N+]([O-])c1ccc(NN=C2CC3CCC2C3)c([N+](=O)[O-])c1 (centres undefined)	4.9
CO[C@H]1CN(C)C(=O)c2cc(NC(=O)C3CC3)ccc2OC[C@@H](C)N(CC2CCOCC2)C[C@@H]1C	-10.0
N#C[C@H]1[C@@H](c2ccc(C3=CCCCC3)cc2)[C@@H](CO)N1C(=O)NC1CCCC1	-1.0
O=C(Nc1cccc(F)c1)N1CC(=O)N2[C@H](C1)[C@H](c1ccc(-c3ccccc3F)cc1)[C@@H]2CO	1.3

(cont.)
SMILES	MLL AF4-AF9 inh
C[C@@H]1CN([C@@H](C)CO)S(=O)(=O)c2ccc(-c3cccc(C(=O)N(C)C)c3)cc2O[C@H]1CN(C)C	-1.2
CC(=O)N(C)C[C@@H]1Oc2ncc(C#C[C@@H](C)O)cc2C(=O)N([C@@H](C)CO)C[C@@H]1C	-5.7
C/C=C/c1ccccc1[C@@H]1[C@@H](C#N)N(C(=O)Cc2ccccn2)[C@H]1CO	0.7
CCNC(=O)C[C@H]1CC[C@H]2[C@@H](COC[C@@H](O)CN2C(=O)Nc2ccc3c(c2)OCO3)O1	1.3
CN(C)CCNc1nc(-c2ccccc2CO)c2sccc2n1	1.1
COCC#Cc1ccc2c(c1)O[C@@H](CN(C)C(=O)c1ccccc1)[C@H](C)CN([C@H](C)CO)S2(=O)=O	1.5
C[C@H](CO)N1C[C@H](C)[C@H](CN(C)C(=O)Nc2cccc3ccccc23)Oc2ccc(NC(=O)CCCCCC(=O)Nc3ccccc3N)cc2CC1=O	-1.8
CCC(=O)N(C)C[C@@H]1Oc2ncc(-c3cccc(OC)c3)cc2C(=O)N([C@H](C)CO)C[C@H]1C	-5.7
CN(C(=O)c1cccc(NC(=O)Cc2ccc(NC(=O)C3CCN(C(=O)c4ccccc4)CC3)cc2)c1)C1CCCC1	1.0
CCCC#Cc1ccc2c(c1)O[C@H](CN(C)Cc1ccc3c(c1)OCO3)[C@H](C)CN([C@H](C)CO)S2(=O)=O	4.3
C[C@@H]1CN([C@@H](C)CO)C(=O)c2c(c3ccccc3n2C)-c2ccccc2CO[C@@H]1CN(C)S(=O)(=O)c1ccc(C#N)cc1	2.7
O=C(O)C[C@H]1C[C@@H]2c3cc(NC(=O)Nc4ccccc4F)ccc3O[C@@H]2[C@H](CO)O1	-2.5
C[C@@H]1CN([C@H](C)CO)C(=O)c2cc(NC(=O)CCC(F)(F)F)ccc2O[C@@H](C)CCCCO[C@@H]1CN(C)C(=O)NC1CCCCC1	1.3
C[C@@H]1CN([C@@H](C)CO)C(=O)c2cccc(NC(=O)Nc3ccc4c(c3)OCO4)c2O[C@@H]1CN(C)Cc1ccc(C(=O)O)cc1	-2.7
COc1ccc(C#Cc2cnc3c(c2)C(=O)N([C@H](C)CO)C[C@H](C)[C@H](CN(C)C(=O)NC(C)C)O3)cc1OC	0.1
O=C1CCC[C@@H]2Cc3nc4cc5c(cc4cc3[C@@H]3CCN1[C@H]23)OCO5	-1.1
CC1=C(C(=O)N(C(C)C)C(C)C)CC(CC(=O)NCc2cccc3ccccc23)C(=O)N1Cc1ccccc1 (centres undefined)	1.8
Cc1cccnc1C(NC(=O)C1CCN(CCCOc2ccc(F)cc2)CC1)c1ccccc1 (centres undefined)	-1.1
Cc1ccc(S(=O)(=O)Nc2ccc3c(c2)C(=O)N([C@H](C)CO)C[C@@H](C)[C@@H](CN(C)C(=O)Cc2ccccc2)OCCCC[C@H](C)O3)cc1	-1.0
C[C@@H]1CN([C@H](C)CO)C(=O)c2cc(C#C[C@@H](C)O)cnc2O[C@@H]1CN(C)Cc1ccc(-c2ccccc2)cc1	-0.3
COc1cccc(S(=O)(=O)N[C@H]2C=C[C@@H](CC(=O)NCc3ccncc3)O[C@@H]2CO)c1	-0.1
CO[C@@H](CN(C)S(=O)(=O)c1ccc(Cl)cc1)[C@@H](C)CN([C@H](C)CO)S(=O)(=O)c1cccc(Cl)c1	-2.8
CCCNC(=O)N1[C@H](C#N)[C@@H](c2ccccc2-c2ccc(F)cc2)[C@@H]1CO	2.1
Cc1ccc(S(=O)(=O)N2C[C@H]3[C@@H](c4ccccc42)[C@@H](CO)N3Cc2cccnc2)cc1	1.6
CN(C)C(=O)C[C@H]1C[C@H]2c3cc(NS(C)(=O)=O)ccc3O[C@H]2[C@H](CO)O1	-0.3

Later entries
SMILES	MLL AF4-AF9 inh
COc1ccc(NC(=O)N(C)C[C@@H]2OCCCC[C@@H](C)Oc3ccc(NS(=O)(=O)c4ccc(C)cc4)cc3C(=O)N([C@H](C)CO)C[C@H]2C)cc1	-3.2
C#CCNC(=O)C[C@@H]1C[C@@]2(C(=O)OCC)CCC=C2N(Cc2cccc3ccccc23)C1=O	0.4
CCCN1C[C@@H](C)[C@@H](OC)CN(C)C(=O)c2ccc(NS(=O)(=O)c3ccccc3)cc2OC[C@@H]1C	-3.5
S=c1[nH]cc(Oc2ccc(Cl)cc2Cl)c(=S)[nH]1	2.2
CN(Cc1ccc(Cl)cc1)C(=O)c1[nH]c(C(F)(F)F)nc1-c1ccccc1	-3.6
COc1ccc(NC(=O)N2CCCCN3[C@H](C2)[C@@H](c2ccc(C#Cc4ccccn4)cc2)[C@@H]3CO)cc1	-0.9
C[C@@H]1CN([C@@H](C)CO)C(=O)c2cc(C#Cc3ccccc3F)cnc2O[C@H]1CN(C)S(C)(=O)=O	0.5
c1ccc(COc2ccc(-c3cc4nc(NCCN5CCOCC5)ccn4n3)cc2)cc1	4.0
C[C@@H]1CCCCO[C@H](CN(C)C(=O)Nc2ccc3c(c2)OCO3)[C@H](C)CN([C@@H](C)CO)C(=O)c2cc(NC(=O)c3ccncc3)ccc2O1	-1.2
COc1ccc2c3c(n(C)c2c1)[C@@H](CO)N(Cc1cccc(F)c1)CC31CCN(C(=O)Cc2ccccc2)CC1	-6.8
